Assay outcomes from PubChem BioAssay.
AID504770 – E. coli YBA685 growth inhibition, screen for V. cholerae RctB inhibitors | z-score (concentration not given with the values) | hit rate 0.27% among 130,000 | E. coli YBA685 rctB-dependent plasmid, OD600 growth, 3 h; stronger effect = lower value;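 active means z-score under -2 on both plates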;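 further: wells of about 30 µL received 100 nL stock; score is relative to mean and SD of the test wells; the first replicate is given; strong numbers were not always called active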
CapD inh – CapD enzyme inhibition. purified CapD enzyme, fluorescence intensity read-out; stronger effect = lower value; some hits fall short of the stated cut. z-score (no concentration beside the values). hit rate 0.23% among 140,000;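 active means z-score under -4 in either of two replicates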;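 further: stock transfer was 100 nL into about 40 µL; score is relative to mean and spread of the plate; one replicate is shown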
Numbers without * were called inactive; . = not tested or not shown; & = joins results of further samples.

SMILES | AID504770 | CapD inh
COc1ccc(C2C(C(=O)NCc3cccnc3)c3ccccc3C(=O)N2c2ccc(OC)cc2)cc1 (stereo unspecified) | . | 35
Oc1ccc(-c2nc3cc4ccccc4cc3nc2-c2ccccc2)cc1 | 0.65 | 5.1
CC(C)n1c(NCCO)nc2ccccc21 | -1 | 0.17
COc1cc(OC)c(C=C2C(=O)NC(=S)NC2=O)c(OC)c1 | . | 1.1
Cc1ccc2[nH]c(=O)c(CC3CC(c4ccccc4)=NN3C(=O)CCC(=O)O)cc2c1 (stereo unspecified) | 1.8 | .
CCCCOc1ccc(C(=O)NOCC(=O)NC2CCCCC2)cc1OC | -1.2 | .
CCOC(=O)CSc1n[nH]c(CC)n1 | 1.6 | -0.07
COCCn1cnc2ccccc21 | -0.05 | .
Cc1cc(Cl)ccc1OCC(=O)N/N=C/c1ccc(F)cc1Cl | . | -0.57
O=c1ccc(N2CCCCC2)n[nH]1 | -1.1 | -0.48
Cc1cn(CCC(=O)Nc2ccc(N3CCOCC3)cc2)c2ccccc12 | -1.1 | -0.28
O=C(c1cccc(C(F)(F)F)c1)N1CCCc2ccccc21 | 0.05 | 0.53
O=C(CN1CCN(S(=O)(=O)c2cccc(C(F)(F)F)c2)CC1)c1ccc[nH]1 | 0.35 | .
O=C(N/N=C(\Cc1ncc[nH]1)c1ccccc1)c1ccncc1 | -0.05 | .
COC(=O)C1=C(C)N(Cc2ccccc2)C(=O)/C1=C\c1cccc(O)c1 | 0.1 | -0.74
Cn1nc(SCC(=O)O)c(=O)n(C)c1=O | -0.5 | .
Cc1ccccc1NC(=O)Cn1c(=O)n(Cc2ccc(F)cc2)c(=O)c2cccnc21 | 0 | -0.43
C#Cc1cccc(NS(=O)(=O)c2ccc(Cl)c(Cl)c2)c1 | . | -0.95
COc1ccc(C2=N/C(=C\C(Cl)=C\c3ccccc3)C(=O)O2)cc1Br | . | 1.3
CCOC(=O)CC1NCCNC1=O (stereo unspecified) | . | -0.6
CN(C)C(=O)CS(=O)(=O)c1ccc(Cl)cc1 | 0 | -0.11
Cc1cccn2cc(CNC(=O)COc3ccccc3)nc12 | 0.25 | .
CN(C)n1cccc1/C=C(\C#N)S(C)(=O)=O | -0.95 | -1.1
CN1C(=O)Cc2cc(S(=O)(=O)Nc3ccc(N4CCOCC4)cc3)ccc21 | -0.5 | .
COc1ccc(C2C(C(=O)N3CCCC(C)C3)CCC(=O)N2c2cc(OC)c(OC)c(OC)c2)cc1 (stereo unspecified) | -0.15 | -0.3

Continuation.
SMILES | AID504770 | CapD inh
C=CCN(CC=C)S(=O)(=O)Cc1ccc(Cl)cc1 | 1.5 | -0.54
O=C(OCc1ccccc1)c1cc2cc(Br)cc(Br)c2oc1=O | 0.25 | 0.31
Cc1ccc(C(C)C)cc1S(=O)(=O)NCc1ccc2c(c1)OCO2 | -0.55 | 0.32
O=c1cc(O)n(-c2ccccc2)c(=S)[nH]1 | -0.6 | .
Cc1ccc2oc(=O)c3cc(C(=O)N(C)CCC#N)sc3c2c1 | -0.85 | 9.3
COc1ccc(C2=NN(C(=O)CSc3nnc(CNC(=O)c4ccco4)n3C)C(c3cccc(OC)c3OC)C2)cc1 (stereo unspecified) | . | -0.085
COc1ccc(Cl)cc1S(=O)(=O)n1c([N+](=O)[O-])cnc1C | . | 1.5
CCC1CCCCN1S(=O)(=O)c1ccc(S(=O)(=O)N2CCN(c3ncccn3)CC2)cc1 (stereo unspecified) | 0.85 | 0.07
CN(C)c1ccc(C2CC(c3c(-c4ccccc4)c4cc(Cl)ccc4[nH]c3=O)=NN2C(=O)CCCC(=O)O)cc1 (stereo unspecified) | . | -0.61
CC(C)(O)C(=O)/C=C/c1ccc2c(c1)OCO2 | -0.3 | -3.2
c1ccc2c(N3CCC(N4CCCCC4)CC3)nnc(Cc3ccncc3)c2c1 | -0.3 | -1.4
COc1ccc(-c2nn(C3CC(=O)C4OCC3O4)c(=S)n2-c2ccccc2)cc1OC (stereo unspecified) | . | -0.28
O=C(O)CSc1cccc2cccc(C(=O)O)c12 | -0.65 | 0.12
Cc1c(S(=O)(=O)Nc2ccc(Cl)cc2)sc2ccc(Cl)cc12 | 0.3 | -0.44
COc1ccc2nc(N(CCN(C)C)C(=O)c3cccs3)sc2c1 | -0.3 | -3
COc1ccc(Br)cc1C1C(N2C(=O)c3ccc([N+](=O)[O-])cc3C2=O)C(=O)N1c1ccc(Br)c(C)c1 (stereo unspecified) | . | -0.51
N#C/C(=C\c1ccccc1Cl)c1cccc(Cl)c1 | . | -0.38
COc1cc(OC)cc([C@@H]2[C@@H](C(C)(C)C)C(C#N)(C#N)[C@H]3c4ccccc4C=CN23)c1 | 1.1 | 17
NC(=O)c1ccccc1N=Cc1ccc(Br)s1 | -0.9 | 13
O=C(NCCN1Cc2ccccc2C1=O)c1ccc(Cl)cc1 | 1.1 | -0.21
Cc1sc2c(c1C)CSCC2=O | 0.05 | -2.5
N=c1c2ncn(C3OC(CO)C(O)C3O)c2ncn1O (stereo unspecified) | . | -0.28
CCOC(=O)C1CCN(CC(=O)CNc2ccc(Cl)c(Cl)c2)CC1 | 0.3 | .
COc1ccccc1NNC(=O)C(O)(c1ccccc1OC)c1ccccc1OC | . | 0
COc1cc(CN2CCN(CCOC(=O)NNC(=O)c3ccccc3O)CC2)cc2c1OCO2 | . | 38

Continued, overlapping the part above by two compounds.
SMILES | AID504770 | CapD inh
COc1ccccc1NNC(=O)C(O)(c1ccccc1OC)c1ccccc1OC | . | 0
COc1cc(CN2CCN(CCOC(=O)NNC(=O)c3ccccc3O)CC2)cc2c1OCO2 | . | 38
Cc1ccc(C2CC(c3cc(Br)ccc3O)=NN2)cc1 (stereo unspecified) | 0.05 | .
O=C(CN1C(=O)COc2ccccc21)NC1CC1 | 1.3 | 1.1
CNC(=O)N(O)C1N(/N=C/c2ccccc2)C(=S)SC1(C)C (stereo unspecified) | . | -0.95
COC(=O)c1c(N)n(-c2ccc(C)c(C)c2)c2nc3ccccc3nc12 | 0 | 36
COc1cc(/C=C/C(=O)N2CCC(C)CC2)ccc1OCc1ccccc1 | 0.1 | -0.095
O=C(CC(Cc1ccccc1)C(=O)O)Nc1cccc(C(F)(F)F)c1 (stereo unspecified) | -0.25 | -0.02
COc1ccc(C(=O)CC#N)cc1 | . | 1
CCn1c(SCC(=O)c2cc(C)n(CC3CCCO3)c2C)nnc1-c1ccccc1 (stereo unspecified) | -0.75 | .
O=C(/C=C(\O)c1ccccc1)C(=O)Nc1ccccc1 | -1.6 | 1.4
c1ccc2c(c1)nc(N1CCCC1)n2CCN1CCCCC1 | -0.35 | 0.45
CN(Cc1ccccc1)c1oc(COc2ccccc2F)nc1C#N | -0.45 | -0.18
COc1cc2c(c(OC)c1OC)-c1ccc(OC)c(=O)cc1[C@@H](NC(C)=O)CC2 | -0.1 | -0.075&-0.085
CC(C)(C)P(=O)(NCc1ccccc1)c1ccccc1 (stereo unspecified) | -0.2 | -0.36
O=C1/C(=C\Nc2ccc(Cl)cc2)S(=O)(=O)CN1c1ccc(Cl)cc1 | . | 0.55
O=C(N/N=C/c1ccc(F)cc1)c1c(O)c2c([nH]c1=O)CCCC2 | 2.8 | 0.095
COc1cc(/C=C2/C(=O)N(c3ccc(Cl)c(Cl)c3)N=C2C)ccc1OCC(=O)O | . | -0.42
Cc1cc(C(=O)N2CCC(C(=O)O)CC2)c(C(F)(F)F)o1 | -0.3 | 0.47
CCCCCCCCOc1ccc(-c2ccc(-c3ncc(CCCCCCCC)cn3)cc2)cc1 | . | -0.66
N#Cc1ccc(C(=O)N(CC(=O)Nc2ccccc2C(F)(F)F)Cc2ccco2)cc1 | -0.3 | .
Cc1nn2c(=O)/c(=C/c3ccc(OCc4ccccc4)cc3)sc2nc1=O | . | -0.28
O=C(Oc1ccc2ccccc2c1)c1ccccc1Cl | -0.75 | 0.16
O=C(CSC(=S)N1CCCC1)Nc1ccccc1OC(F)F | -0.4 | .
Nc1ccc(Cn2cccn2)cc1 | 1.3 | .
CC(CCc1ccccc1)NC(=O)CSc1ncnc2ccccc12 (stereo unspecified) | -0.85 | 0.23
O=C(O)CSc1ccc(S(=O)(=O)N2CCCC2)cn1 | 1.4 | .

Structures above that contain a Cl atom (14):
SMILES | AID504770 | CapD inh
Cc1cc(Cl)ccc1OCC(=O)N/N=C/c1ccc(F)cc1Cl | . | -0.57
C#Cc1cccc(NS(=O)(=O)c2ccc(Cl)c(Cl)c2)c1 | . | -0.95
COc1ccc(C2=N/C(=C\C(Cl)=C\c3ccccc3)C(=O)O2)cc1Br | . | 1.3
CN(C)C(=O)CS(=O)(=O)c1ccc(Cl)cc1 | 0 | -0.11
C=CCN(CC=C)S(=O)(=O)Cc1ccc(Cl)cc1 | 1.5 | -0.54
COc1ccc(Cl)cc1S(=O)(=O)n1c([N+](=O)[O-])cnc1C | . | 1.5
CN(C)c1ccc(C2CC(c3c(-c4ccccc4)c4cc(Cl)ccc4[nH]c3=O)=NN2C(=O)CCCC(=O)O)cc1 (stereo unspecified) | . | -0.61
Cc1c(S(=O)(=O)Nc2ccc(Cl)cc2)sc2ccc(Cl)cc12 | 0.3 | -0.44
N#C/C(=C\c1ccccc1Cl)c1cccc(Cl)c1 | . | -0.38
O=C(NCCN1Cc2ccccc2C1=O)c1ccc(Cl)cc1 | 1.1 | -0.21
CCOC(=O)C1CCN(CC(=O)CNc2ccc(Cl)c(Cl)c2)CC1 | 0.3 | .
O=C1/C(=C\Nc2ccc(Cl)cc2)S(=O)(=O)CN1c1ccc(Cl)cc1 | . | 0.55
COc1cc(/C=C2/C(=O)N(c3ccc(Cl)c(Cl)c3)N=C2C)ccc1OCC(=O)O | . | -0.42
O=C(Oc1ccc2ccccc2c1)c1ccccc1Cl | -0.75 | 0.16

Next compounds follow:
SMILES | AID504770 | CapD inh
Cc1c(C(=O)Nc2ccc(F)c(Cl)c2)sc2ncn(CC(=O)N3CCN(c4ccccn4)CC3)c(=O)c12 | . | -0.17
COc1ccccc1CNC(=O)c1cnc2ccc(S(=O)(=O)N3CCOCC3)cc2c1Cl | -0.9 | 0.17
CC1(C)CC(=O)C2=C(C1)OC1=C(C(=O)CC(C)(C)C1)C2c1cc2ccccc2[nH]c1=O | . | 0.32
COc1ccc(C2=NN3C(C2)c2cccc(OC)c2OC32CCCCC2)cc1 (stereo unspecified) | . | 1
COc1ccc(C(=O)N/N=C/c2ccc(C)c([N+](=O)[O-])c2)cc1 | . | -0.2
CCc1oc2ccccc2c1C(=O)c1ccc(OC(C)=O)cc1 | -0.9 | -0.42
O=c1cc(-c2c(F)c(F)c(F)c(F)c2F)oc2ccccc12 | -0.65 | -0.085
Cc1cc(=O)oc(C)c1C(=O)O | 0.4 | -1
O=C(CC1CCCCC1)Nc1nc2ccccc2s1 | 1.5 | -0.72
CCOC(=O)c1sc(SC(C)C)c2c1-c1ccccc1N(C)S2(=O)=O | . | 2.3
COc1ccc(-c2csc(-c3cccs3)n2)c(OC)c1 | 0.1 | .
Cc1cnc(C(=O)Nc2cc(S(C)(=O)=O)ccc2Cl)cn1 | 3.4 | .
O=C(/C=C/Nc1cccc(C(F)(F)F)c1)c1ccc(Oc2ncccn2)cc1 | . | -0.46
CCCC(=O)Nc1ccccc1-c1nnc(SC)[nH]c1=O | -0.35 | -0.54
COc1ccccc1NC(=O)Nc1nnc(N2CC(C)CC(C)C2)s1 (stereo unspecified) | -0.45 | 0.64
Fc1ccc2nc(-c3ccc(Cl)c(Cl)c3)cnc2c1 | -0.5 | 1.1
COc1ccccc1CC(=O)N1CCN(c2ccc(C(F)(F)F)cn2)CC1 | -0.05 | .
CCC(C(=O)N1CCN(S(C)(=O)=O)CC1)c1ccccc1 (stereo unspecified) | -0.35 | 0.31
CCC(C(=O)N1CCN(C(=O)c2ccco2)CC1)n1nc(C)c2sc3ccccc3c2c1=O (stereo unspecified) | 0.4 | 6.8
CCn1c(CCC(=O)Nc2ccnn2Cc2cccs2)nc2cc(S(=O)(=O)N(C)C)ccc21 | -0.65 | .
COc1ccc2c(c1)c(C(=O)CNc1nc(C)cs1)c(C)n2C | 0.6 | -0.24
CCOC(=O)C1=C(SC)NC(=O)C(C)(C#N)C12CCCCC2 (stereo unspecified) | 0.75 | 0.72
N#CC(C#N)=Cc1cn(-c2ccccc2)nc1-c1ccccc1 | 0.05 | .
CCN(CC(=O)Nc1ccc2c(c1)OCCO2)CC(=O)Nc1sccc1C#N | -0.3 | .
Cc1noc(C)c1CSc1ccc2ccccc2n1 | -0.15 | 9

New compounds follow:
SMILES | AID504770 | CapD inh
CN(C)S(=O)(=O)c1ccc(C(=O)NCCn2ccc3ccccc32)cc1 | 0.65&-0.2 | -0.24&-0.77
Cc1cc(=O)[nH]c(C(C)C)n1 | 1.2 | -0.27
CCN(CC)c1nc(C)nc2sc(C(=O)NCc3ccccn3)c(C)c12 | . | 0.91
CC(C)C1Oc2cc3oc(=O)ccc3cc2/C1=N\NC(N)=S (stereo unspecified) | 0.8 | .
COc1cccc(-c2cc(C(=O)N3CCOCC3)on2)c1 | -1.2 | -0.21
CCCn1c2ccccc2c2cnn(CC(=O)Nc3ccccc3)c(=O)c21 | -0.3 | 16
Cc1cc(N2CCN(CC(=O)c3ccccc3)CC2)c2ccccc2n1 | . | 0.92
CN(C1CCCCC1)S(=O)(=O)c1ccc(CCN2C(=O)c3cccnc3C2=O)cc1 | 2.2 | -0.36
CC1=NN(c2ccc(S(N)(=O)=O)cc2)C(=O)/C1=C\c1ccc(-c2ccc(C)cc2[N+](=O)[O-])o1 | . | -1
CC(=O)N1CCc2cc(NC(=S)Nc3ccccc3Cl)ccc21 | -0.25 | -0.31
O=S(=O)(c1ccc(N=Cc2cc(Cl)cc(Cl)c2O)cc1)c1ccc(N=Cc2cc(Cl)cc(Cl)c2O)cc1 | . | -1.3
O=C(NCCSCc1ccc2nonc2c1)c1ccc(Cl)cc1Cl | 0.45 | 0.61
O=C(/C=C/c1cccs1)Oc1ccccc1Cl | -0.8 | -1.8
Cc1ccc(N2C(=O)C(N3C(=O)c4ccccc4C3=O)C2c2ccc(Br)s2)cc1 (stereo unspecified) | . | -0.41
CC(C)Nc1nnc(SCc2cc(=O)n3ccsc3n2)s1 | -0.55 | .
CC1(C)C(C(=O)Nc2nccs2)C1(C)C | -0.6 | 0.025
